# Bead autofluor = compound fluorescence in toxin protease inhibitor counterscreen | compound autofluorescence counterscreen, microsphere flow cytometry; hits give high values | fluorescence intensity (concentration not given with the values) | 360,000 tested, 3.1% active | AID 624483;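 active means at least 3 SD above the mean of all compounds, about 16000 in these data; inconclusive means too few beads counted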;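 further: 100 nL of 1 mM stock went into each well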
# Sa ugtP lethal = growth inhibition of S. aureus ugtP deletion strain; S. aureus RN4220 ugtP deletion, OD600 growth, 16 h; some inactives read as strong as hits; growth inhibition, % (concentration not given with the values); 330,000 tested, 0.54% active;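 active means z-score under -3 and OD600 up to 0.15 on both plates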;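 further: plate controls were untreated wells for no effect and antibiotic for full effect; wells of about 80 µL received 100 nL stock; the first replicate is given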
# BJeLR lethal = kills HRASV12-expressing BJeLR cells; BJeLR (HRASV12) viability, CellTiter-Glo ATP luminescence, 48 h; reference of the scale not given here; inhibition, % (no concentration beside the values); 300,000 tested, 0.17% active;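 active means replicate mean above 50%; inconclusive means above 50% but judged a plate artefact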;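 further: 50 nL library stock added to about 25 µL; numbers are from one replicate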
# RN4220 kill = kills Staphylococcus aureus RN4220. S. aureus RN4220 growth, OD600, 16 h. inhibition, % (no concentration beside the values). 330,000 tested, 0.33% active. AID 1259311;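 active means z-score of -3 or lower and OD600 up to 0.18 on both plates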;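 further: plate controls were untreated cells for no effect and reference antibiotic for full effect; stock transfer was 100 nL into about 80 µL; one replicate is shown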
# PrP UTR inh = inhibition of PrP 5' UTR reporter expression; cell-based PrP 5' UTR mRNA reporter, plate reader; inhibition, % (test concentration not listed); 340,000 tested, 0.35% active;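 active means every replicate at 50% or more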;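 further: 0 = median of the neutral control wells; tested in H4 reporter cells; numbers are from one replicate; inactives centre near -14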
# Mtb hypoxia rep = inhibitors of hypoxia-regulated fluorescent reporter in Mycobacterium tuberculosis | M. tuberculosis hypoxia-regulated fluorescent reporter, fluorescence | fluorescence inhibition, % (test concentration not listed) | 300,000 tested, 0.1% active;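 active means 35 to 45% if threefold the growth effect, above 45% if 1.5-fold the growth effect; inactive means the rest, general growth blockers included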;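 further: wells of about 50 µL received 100 nL stock; 0% = vehicle wells and 100% = reference inhibitor wells; whole bacteria with a GFP reporter of the hypoxia response; strong numbers were not always called active; many hits fall short of the cut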
# Mtb hypoxia rep growth = also measured in Mtb hypoxia rep; calls as there; growth inhibition, %; measured here: M. tuberculosis growth (absorbance);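 0% = vehicle and 100% = reference antibiotic; read after six days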
# The depositor's hits bear a star; ? = inconclusive; · = not tested or not shown.
SMILES,Bead autofluor,Sa ugtP lethal,BJeLR lethal,RN4220 kill,PrP UTR inh,Mtb hypoxia rep,Mtb hypoxia rep growth
Cc1ccc(C)c2[nH]c(=O)c(CN(Cc3ccco3)S(=O)(=O)c3ccc4c(c3)OCCO4)cc12,22529*,-23,16,0.4,-16,-2,13
O=C(C1=NN[C@@H]2C(=O)N(c3cccc(F)c3)C(=O)[C@H]12)c1cnccn1,4651,4,0,5.0,-89,12,9
COc1ccc(CCNC(=O)COc2cc(C)cc3oc(=O)cc(C)c23)cc1,5311,4,5,3.4,-14,2,-3
CC1(c2ccccc2)NC(=O)N(CC(=O)NNC(=O)c2ccccc2)C1=O (stereo not drawn),4182,7,2,3.2,-19,6,-4
CC1(C)Cc2c(cnn2-c2ccccc2)C(NC(=O)CCN2CCCCO2)C1 (stereo not drawn),6006,·,-1,·,-8,·,·
O=C(O)c1ccc(-c2ccccn2)s1,3915,-4,-1,4.0,-12,5,2
COc1ccc(C(=O)NC(C)c2nnc(SCc3ccc(Cl)c(Cl)c3)n2C)cc1 (stereo not drawn),11376,26,0,0.4,2,10,9
Cc1nc(C)c(-c2ccccc2)c(=O)[nH]1,4342,-11,-5,2.2,-23,·,·
CCOc1cc(C=NNc2ccccc2Cl)ccc1OCC(=O)O,·,-6,·,2.2,·,1,-4
COc1cccc(C(=O)N2CCN(c3ccc(N4CCOCC4)nn3)CC2)c1,?,3,0,-1.5,-13,-6,-5
COc1cc(C2C(C(=O)OC(C)C)=C(C)Nc3[nH]c(=O)[nH]c(=O)c32)ccc1O (stereo not drawn),6752,0,-8,1.7,-4,3,14
CCOC(=O)CC1=CCc2c1ccc(OC)c2OC,4014,4,·,6.8,-60,10,0
O=C(NCc1nnc(SCC(=O)N2CCCc3ccccc32)o1)c1ccco1,4300,7,0,5.2,-17,-4,-3
CC1CCCC(C)N1C(=O)c1cc(-c2cccs2)on1 (stereo not drawn),15257,12,-7,5.6,-46,4,4
COc1ccc(OC)c(S(=O)(=O)NC2CC(=O)N(c3ccc(C)c(C)c3)C2)c1 (stereo not drawn),·,-1,-3,0.5,-17,3,0
Cc1ccc(NC2=NC3(CCCCC3)N=C(N)N2)c(C)c1,11120,-1,-3,-0.3,-28,-8,-5
O=C(C1CCC1)N1CCc2cc(S(=O)(=O)NC3CCCC3)ccc21,3460,8,3,4.5,-1,·,·
N#CC(=Cc1cccc(Cl)c1)c1n[nH]c(Cn2cncn2)n1,·,-15,·,23,·,-11,-13
Cc1ccc(N2CC(C)Cn3c2nc2c3c(=O)[nH]c(=O)n2C)cc1C (stereo not drawn),3830,0,10,-0.5,16,-5,5
C/C(N)=C(/C#N)C(=O)COC(=O)c1cc(-c2ccccc2)nc2ccc(Br)cc12,·,-2,4,-13,·,-10,-10
COCCCNC(=O)Cn1cnc2sc(C)c(S(=O)(=O)N3CC(C)CC(C)C3)c2c1=O (stereo not drawn),3608,7,1,1.9,-22,0,-4
Cc1ccccc1NC(=S)N/N=C/c1ccc(O)cc1O,3734,·,5,·,-22,·,·
O=C(Nc1cc(Cl)ccc1O)C1CC(c2ccccc2O)=NO1 (stereo not drawn),4393,-28,-3,-4.3,3,-4,8
Cc1cc(NS(=O)(=O)c2ccc(NC(=S)NC(=O)c3ccncc3)cc2)no1,4666,1,-3,1.4,-25,15,9
Clc1nc(CN2CCOCC2)nc2sc3c(c12)CCC3,4459,3,6,3.4,-8,8,14

# Part of the list above, with bars between the fields:
SMILES | Bead autofluor | Sa ugtP lethal | BJeLR lethal | RN4220 kill | PrP UTR inh | Mtb hypoxia rep | Mtb hypoxia rep growth
Cc1ccc(NC2=NC3(CCCCC3)N=C(N)N2)c(C)c1 | 11120 | -1 | -3 | -0.3 | -28 | -8 | -5
O=C(C1CCC1)N1CCc2cc(S(=O)(=O)NC3CCCC3)ccc21 | 3460 | 8 | 3 | 4.5 | -1 | · | ·

# Filtered by structure, the entries above containing a COOH group.
SMILES,Bead autofluor,Sa ugtP lethal,BJeLR lethal,RN4220 kill,PrP UTR inh,Mtb hypoxia rep,Mtb hypoxia rep growth
O=C(O)c1ccc(-c2ccccn2)s1,3915,-4,-1,4.0,-12,5,2
CCOc1cc(C=NNc2ccccc2Cl)ccc1OCC(=O)O,·,-6,·,2.2,·,1,-4

# The results go on:
SMILES,Bead autofluor,Sa ugtP lethal,BJeLR lethal,RN4220 kill,PrP UTR inh,Mtb hypoxia rep,Mtb hypoxia rep growth
CCCCCn1c(CNC(C)=O)nc2ccccc21,6977,9,-10,8.2,-9,0,0
CCN(CCCn1c(SCC#N)nc2ccccc2c1=O)c1ccccc1,19328*,6,5,-0.1,-16,5,8
CC1CCc2c(sc(NC(=O)C3CCCO3)c2C#N)C1 (stereo not drawn),3196,2,11,1.6,-64,12,11
O=C(CN1C(=O)C2CC=CCC2C1=O)Nc1ccc(Br)cc1 (stereo not drawn),6213,-3,-4,-0.1,10,6,6
O=c1[nH]c(CCl)nc2cc(-c3ccc(Cl)cc3)sc12,2931,-4,20,13,-64,6,11
CCOC(=O)c1cccc(NC(=O)CN(C)S(=O)(=O)c2cnc[nH]2)c1,3274,0,-18,6.2,-4,9,7
Nn1c(SCc2ccc(Br)cc2)nnc1-c1ccccn1,3263,4,4,-2.5,-18,13,5
CN(C)C(=O)COc1ccc2c(-c3ccccc3)cc(=O)oc2c1,3778,6,-5,-3.2,-52,4,-2
COc1ccc(-c2c(NC(=O)c3ccco3)n(-c3ccc(C)cc3)nc(C)c2=O)cc1,?,2,3,0.9,·,2,4
O=C(NCC(=O)N(c1cccc(F)c1)C(C(=O)NC1CCCC1)c1cccnc1)c1cccs1 (stereo not drawn),4703,11,1,10,-9,15,8
COc1ccc(C(C(=O)NC2CCCCC2)N(C(=O)c2ccccn2)c2cccnc2)c(OC)c1 (stereo not drawn),3661,10,5,3.9,-24,5,0
NC(=O)CCCn1c(C(=O)c2cc(Cl)c(N)c(Cl)c2)c2ccc([N+](=O)[O-])cc2[n+]1[O-],4009,75,3,63,-27,24,17
CCOc1ccc(C(C)NC(=O)c2cc(=O)[nH]c3ccccc23)cc1OCC (stereo not drawn),4036,2,-6,0.8,-8,11,2
CC(C)c1nc2sc3c(c2c(=O)[nH]1)CC(C)(C)OC3,4027,14,5,4.2,-7,10,-3
COc1ccc2c(c1)OCC1C2N2C(=O)CN(Cc3ccco3)C(=O)[C@@]2(C)C1c1ccccc1 (stereo partly drawn),·,-3,·,-2.5,·,-3,12
C#CCNC(=O)C1=C[C@H](c2ccc(Br)cc2)C[C@H](OCCCCO)O1,3418,·,-8,·,-19,·,·
O=C(OCCCOC(=O)c1ccc(Br)o1)c1ccc(Br)o1,5004,0,-1,1.3,-15,5,18
NC(=O)C1CCN(C(=O)c2ccc(Oc3cc(Cl)cc(Cl)c3)o2)CC1,4143,0,2,8.3,-26,5,-11
Cc1cccc(C(=O)N=c2sccn2C)c1[N+](=O)[O-],5329,4,-3,5.1,-49,16,8
COc1ccccc1OCCNC(=O)Cc1ccc(Cl)c(Cl)c1,3926,2,2,-4.6,-22,11,2
CN1C(=O)/C(=C/c2ccc(O)c([N+](=O)[O-])c2)N(C)C1=S,5008,·,13,·,-36,·,·
CC(=O)Oc1ccc(C(=O)[C@H]2[C@H]3C(=O)N(c4ccccc4)C(=O)[C@H]3[C@@H]3C=CC=NN32)cc1,2549,·,11,·,-33,·,·
Cc1cnc(C(=O)OCC(=O)N=c2sccn2Cc2ccccc2Cl)cn1,6342,-6,8,2.7,-6,9,2
CS(=O)(=O)N(Cc1ccc(Cl)cc1)c1ccc(C(=O)N2CCN(c3ccccc3)CC2)cc1,9092,-16,7,5.6,-20,6,-3
C(=Nn1cnnc1)c1cccn1-c1ccccc1,·,11,·,6.7,·,15,-9

# Three entries picked at random from the list so far:
SMILES,Bead autofluor,Sa ugtP lethal,BJeLR lethal,RN4220 kill,PrP UTR inh,Mtb hypoxia rep,Mtb hypoxia rep growth
CC(=O)Oc1ccc(C(=O)[C@H]2[C@H]3C(=O)N(c4ccccc4)C(=O)[C@H]3[C@@H]3C=CC=NN32)cc1,2549,·,11,·,-33,·,·
CC(C)c1nc2sc3c(c2c(=O)[nH]1)CC(C)(C)OC3,4027,14,5,4.2,-7,10,-3
COc1ccc(-c2c(NC(=O)c3ccco3)n(-c3ccc(C)cc3)nc(C)c2=O)cc1,?,2,3,0.9,·,2,4

# (further entries)
SMILES,Bead autofluor,Sa ugtP lethal,BJeLR lethal,RN4220 kill,PrP UTR inh,Mtb hypoxia rep,Mtb hypoxia rep growth
Cc1ccccc1C(=O)N1CCC(C(=O)Nc2nccs2)CC1,4284,9,-9,2.9,88*,15,5
C=CCn1c(SCC(=O)c2ccc(O)c(O)c2)nnc1-c1cccnc1,4124,2,10,8.2,-24,7,12
CCCOc1ccc(NC(=O)C2CC(=O)N(C)C(=Nc3cccc(OC)c3)S2)cc1 (stereo not drawn),2562,2,-2,-9.4,13,-8,-14
COc1ccc(C(=O)NC2CC2)cc1OC1CCN(Cc2ccccc2)CC1,6028,-5,-3,-0.5,-23,-1,-5
CCCCCCC(C)NC(=S)Nc1cc(S(=O)(=O)N(C)C)ccc1C (stereo not drawn),9708,-23,4,0.5,-15,8,6
Cc1cc2c(cc1S(=O)(=O)NCc1ccccc1)n(C)c(=O)c(=O)n2C,6201,-11,-2,2.7,-20,·,·
Cc1cc(NC(=O)/C=C\C(=O)O)c([N+](=O)[O-])cc1C,4254,4,-14,6.2,-26,-14,1
CCOc1ccc(N/C(N)=N/c2nc(C)cc(C)n2)cc1,4271,6,11,6.4,-3,2,13
O=C(CCN=C1NS(=O)(=O)c2ccccc21)N1CCc2ccccc2C1,4286,12,16,4.4,-38,10,4
CCCN1CCc2c(sc(NC(=O)C3CCN(S(=O)(=O)c4cccs4)CC3)c2C(N)=O)C1,5912,6,5,-1.1,-2,6,3
COc1cc(C(=O)NCC(=O)NN=Cc2cccc(OC(=O)c3ccco3)c2)cc(OC)c1OC,·,-5,·,1.0,·,5,17
CC1(C)CC(=O)CC(=NNC(=O)Cc2ccccc2)C1,·,-6,·,6.2,·,9,3
O=C(NCc1cccnc1)C1CCN(S(=O)(=O)c2cc([N+](=O)[O-])ccc2Cl)CC1,3101,-1,·,0.1,6,-6,5
Cc1ccc(-c2ccc(=O)n(CC(=O)NCCN3CCCCC3C)n2)cc1 (stereo not drawn),12043,-2,-4,-3.0,12,-3,4
COc1cc(OC)c(NC(=O)c2cncn2-c2ccc(F)cc2)cc1Cl,5812,13,-7,-1.2,-5,1,9
N=C(N)N=Nc1c(O)[nH]c2ccc(Br)cc12,2679,-4,-4,7.6,0,-4,2
COc1ccc(C(=O)C2CCCCC2=O)cc1 (stereo not drawn),3091,3,-12,4.5,-11,·,·
CCCc1cc(=O)[nH]c(SCC(=O)N2CC3(C)CC2CC(C)(C)C3)n1 (stereo not drawn),5021,-2,·,13,-27,0,1

# Assay outcomes deposited in PubChem by several laboratories.

# Rows are unselected; any-hit rate near 3.9%.
